DUX4 inh: DUX4-mediated transcription inhibition; 293T-iDUX4 ZSCAN4-Gaussia luciferase reporter, 24 h; hits give low values; activity change, negative = inhibition, % (concentration not given with the values); 37,000 compounds, 0.8% hits; AID 1224904;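 active = -10% or lower and over 25 points stronger than a control reporter; inconclusive = -10% or lower with a smaller gap; inactive = above -10%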;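 also: 0% = median of neutral control wells and -100% = median of positive control wells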
DUX4 inh difference: further read-out of DUX4 inh, marked with its call; Gaussia minus Italica difference, %; measured here: selective DUX4 reporter inhibition;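 worked out from the two reporters; negative = selective loss of the DUX4 reporter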
DUX4 inh control: also measured in DUX4 inh; calls as there; activity change, negative = inhibition, %; measured here: Italica tet-on control reporter;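 0 = neutral control and -100 = positive control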
Active calls of the source: *; ? = inconclusive; / = no result given.

Values run as follows: DUX4 inh | DUX4 inh difference | DUX4 inh control
> CC(=O)Nc1ccc2c(c1)C(=O)N(C)[C@H]1CC[C@@H](CC(=O)NCc3ccc4c(c3)OCO4)O[C@@H]1CO2
→ -2 | -1 | -1.3
> O=C(C[C@@H]1C=C[C@H](NC(=O)c2cnccn2)[C@H](CO)O1)NCc1ccccc1F
→ 7 | 3 | 3.5
> C[C@@H]1CCCCO[C@@H](CN(C)C(=O)c2ccncc2)[C@@H](C)CN([C@H](C)CO)C(=O)c2cc(NC(=O)NC3CCCCC3)ccc2O1
→ -3 | -5 | 2.5
> C[C@@H]1CN([C@@H](C)CO)C(=O)c2cc(NC(=O)CCCCCC(=O)Nc3ccccc3N)ccc2O[C@@H]1CN(C)C(=O)Nc1ccc(C(F)(F)F)cc1
→ 4 | 3 | 1.3
> COc1ccc(-c2ccc([C@@H]3[C@H]4CN(Cc5ccc(F)cc5)CC(=O)N4[C@H]3CO)cc2)cc1
→ -1 | 4 | -4.9
> CO[C@@H]1CN(C)C(=O)c2cc(NC(=O)c3ccccc3F)ccc2OC[C@H](C)NC[C@@H]1C
→ 4 | 5 | -1.4
> C[C@@H]1CCCCO[C@@H](CN(C)C(=O)NC2CCCCC2)[C@H](C)CN([C@@H](C)CO)C(=O)c2cc(N(C)C)ccc2O1
→ -1 | -1 | -0.6
> COc1ccccc1S(=O)(=O)N1CC[C@@H]2[C@H](CO)Nc3ccc(Br)cc3[C@@H]21
→ 13 | 7 | 5.2
> O=C(C[C@H]1CC[C@H]2[C@@H](COC[C@H](O)CN2C(=O)c2cnccn2)O1)NCc1ccc(F)cc1
→ 6 | 1 | 4.9
> COc1ccc(C#Cc2ccc3c(c2)[C@H]2[C@H](CCN2C(=O)c2cccc(F)c2)[C@@H](CO)N3)cc1
→ 11 | 4 | 7.1
> Cc1cccc(CN(C)C[C@H]2OCc3cn(nn3)CCCC(=O)N([C@@H](C)CO)C[C@@H]2C)c1
→ 3 | 4 | -0.5
> CN1C(=O)c2cc(NC(=O)c3cccc(Cl)c3)ccc2OC[C@H]2O[C@H](CC(=O)NC3CCCCC3)CC[C@@H]21
→ -2 | -2 | 0.3
> CCCNC(=O)N1C[C@H]2[C@@H](c3ccccc31)[C@H](CO)N2Cc1ccc(F)cc1
→ -5 | 0 | -5.4
> Cc1cc(C(=O)Nc2ccc3c(c2)C(=O)N(C)[C@@H]2CC[C@H](CC(=O)NCC(F)(F)F)O[C@@H]2CO3)no1
→ -7 | -4 | -3.4
> O=C(NC1CCC1)[C@H]1[C@H](CO)[C@H]2Cn3c(ccc(-c4ccc(F)cc4)c3=O)[C@@H]1N2
→ -9 | -12 | 3.4

Part of the list above in a different format.
> COc1ccc(C#Cc2ccc3c(c2)[C@H]2[C@H](CCN2C(=O)c2cccc(F)c2)[C@@H](CO)N3)cc1
  DUX4 inh = 11	DUX4 inh difference = 4	DUX4 inh control = 7.1
> Cc1cccc(CN(C)C[C@H]2OCc3cn(nn3)CCCC(=O)N([C@@H](C)CO)C[C@@H]2C)c1
  DUX4 inh = 3	DUX4 inh difference = 4	DUX4 inh control = -0.5

Other records
Values run as follows: DUX4 inh | DUX4 inh difference | DUX4 inh control
> C[C@H]1CN([C@@H](C)CO)C(=O)Cc2cc(NC(=O)C3CCCCC3)ccc2O[C@H]1CN(C)S(=O)(=O)c1ccc(F)cc1
→ 1 | 1 | -0.3
> Cc1ccccc1S(=O)(=O)N1C[C@@H](O)COC[C@H]2O[C@@H](CC(=O)NCCc3ccccc3)CC[C@@H]21
→ 1 | 0 | 1.5
> O=S(=O)(c1ccccc1)N1CC[C@@H]2[C@@H](CO)Nc3ccc(C#Cc4ccccc4F)cc3[C@@H]21
→ 2 | 3 | -0.9
> O=C(C1CCOCC1)N1CC(=O)N2[C@H](C1)[C@H](c1ccc(C#CCc3ccccc3)cc1)[C@@H]2CO
→ -1 | -6 | 4.7
> CCCNC(=O)N1CCC2(CC1)CN(C(=O)CC1CC1)[C@H](CO)c1c2c2ccc(OC)cc2n1C
→ 24 | 11 | 13
> CCCN1C[C@@H](C)[C@H](OC)CN(C)C(=O)c2cc(NC(=O)CC)ccc2OC[C@@H]1C
→ -1 | -2 | 1.4
> O=C(C[C@H]1CC[C@H]2[C@@H](COC[C@H](O)CN2Cc2ccc(Oc3ccccc3)cc2)O1)Nc1nccs1
→ ? | / | /
> COc1cccc(NC(=O)N[C@@H]2C=C[C@@H](CC(=O)Nc3ccc(-c4ccccc4)cc3)O[C@H]2CO)c1
→ ? | / | /
> C[C@H](CO)N1C[C@H](C)[C@H](CN(C)Cc2ccccc2)Oc2ncc(C#CC3(O)CCCC3)cc2C1=O
→ -1 | -2 | 1.0
> C[C@H]1CCCCO[C@H](CN(C)Cc2ccc(C(=O)O)cc2)[C@@H](C)CN([C@@H](C)CO)C(=O)c2cc(NC(=O)NC3CCCCC3)ccc2O1
→ 3 | 4 | -1.1
> CN(C)C(=O)C[C@@H]1C=C[C@H](NC(=O)C2CCOCC2)[C@H](CO)O1
→ -1 | -4 | 3.7
> C[C@H](CO)N1C[C@H](C)[C@H](CN(C)CC2CCCCC2)Oc2ccc(NS(=O)(=O)c3ccc(Cl)cc3)cc2C1=O
→ 1 | -6 | 6.5
> COc1cccc(NC(=O)N2CC(=O)N3[C@@H](CO)[C@@H](c4ccc(C#CCC5CCCC5)cc4)[C@@H]3C2)c1
→ ? | / | /
> CN(C)C(=O)C[C@@H]1CC[C@H]2[C@H](COc3ccc(NC(=O)C4CCCCC4)cc3C(=O)N2C)O1
→ 0 | -1 | 1.3
> CNC(=O)C[C@@H]1CC[C@@H]2[C@@H](COc3ccc(NC(=O)Nc4ccccc4F)cc3C(=O)N2C)O1
→ 8 | 26 | -18

Further records.
Values run as follows: DUX4 inh | DUX4 inh difference | DUX4 inh control
> O=C(C[C@@H]1CC[C@@H]2[C@H](COC[C@@H](O)CN2Cc2cccc(Cl)c2)O1)NCc1cccc(F)c1
→ -9 | -2 | -6.9
> CC=Cc1ccc2n(c1=O)C[C@H]1[C@H](CO)[C@@H](C(=O)N3CCCCC3)N(Cc3ccccn3)[C@@H]21 (mixture of isomers)
→ 7 | 1 | 5.7
> O=C(N[C@@H]1CC[C@H](CCNS(=O)(=O)c2ccc(F)cc2)O[C@@H]1CO)C1CCC1
→ -3 | -4 | 1.1
> C[C@@H]1CCCCO[C@H](CN(C)C(=O)Nc2ccc3c(c2)OCO3)[C@@H](C)CN([C@@H](C)CO)C(=O)c2cc(NS(=O)(=O)c3ccc(F)cc3)ccc2O1
→ 0 | 5 | -4.5
> O=C(c1cccc(F)c1)N1C[C@H]2[C@@H](c3ccccc31)[C@@H](CO)N2C(=O)c1ccccn1
→ -1 | 5 | -5.1
> CCC(=O)N1[C@@H]2Cn3c(cccc3=O)[C@H]1[C@@H](C(=O)N1CCc3ccccc3C1)[C@@H]2CO
→ -2 | -9 | 7.2
> O=C(C[C@@H]1C=C[C@@H](NC(=O)Cc2cccnc2)[C@H](CO)O1)Nc1ccc(-c2ccccc2)cc1
→ -3 | 1 | -3.1
> COc1cccc(-c2cnc3c(c2)C(=O)N([C@H](C)CO)C[C@@H](C)[C@@H](CN(C)C(=O)Nc2ccccc2F)O3)c1
→ 2 | -2 | 4.5
> CO[C@H]1CN(C)C(=O)c2cccc(C#N)c2OCC[C@@H]2CC[C@@H](OC)[C@H](CN(C)C(=O)[C@@H]1C)O2
→ -3 | -3 | 0.0
> COCCNC(=O)C[C@H]1C[C@@H]2c3cc(NC(=O)Nc4ccc(OC)cc4)ccc3O[C@@H]2[C@@H](CO)O1
→ -8 | -3 | -4.9
> COc1ccc2c3c([nH]c2c1)[C@@H](CO)N(C(=O)Nc1c(C)noc1C)CC31CN(CC2CCOCC2)C1
→ 17 | -2 | 19
> C[C@H]1CN([C@@H](C)CO)C(=O)Cc2cc(NS(=O)(=O)c3cccs3)ccc2O[C@@H]1CN(C)CC1CCCCC1
→ 3 | -1 | 3.9
> COc1ccc(NC(=O)Nc2ccc3c(c2)C(=O)N([C@@H](C)CO)C[C@H](C)[C@@H](CN(C)S(=O)(=O)c2cccs2)OCCCC[C@H](C)O3)cc1
→ 0 | -3 | 2.4
> COc1ccccc1C#Cc1ccc([C@H]2[C@H]3CN(C(=O)C4CCC4)CCCCN3[C@H]2CO)cc1
→ -3 | 26 | -29
> CNC[C@H]1OCc2ccccc2-c2c(n(C)c3ccccc23)C(=O)N([C@@H](C)CO)C[C@@H]1C
→ 8 | 1 | 7.5

Other results.
Values run as follows: DUX4 inh | DUX4 inh difference | DUX4 inh control
> Cc1noc(C)c1NC(=O)Nc1ccc2c(c1)C(=O)N(C)[C@H]1CC[C@H](CC(=O)NCc3ccc(Cl)cc3)O[C@@H]1CO2
→ -3 | 1 | -3.9
> Cc1ccc(S(=O)(=O)N[C@H]2C=C[C@H](CC(=O)NC3CCCCC3)O[C@@H]2CO)cc1
→ 5 | 7 | -1.5
> O=C(Nc1ccccc1F)N[C@@H]1CC[C@@H](CCNC(=O)C2CC2)O[C@H]1CO
→ 4 | 5 | -0.9
> O=C(c1ccncc1)N1C[C@H]2[C@@H](c3ccccc31)[C@H](CO)N2C(=O)CN1CCOCC1
→ -5 | -4 | -0.8
> COc1cccc(-c2ccc(C3[C@@H]4CN(S(=O)(=O)Cc5ccccc5)C[C@H]3N4)cc2)c1 (some centres not stated)
→ -22* | -27* | 5.1*
> CCS(=O)(=O)Nc1ccc2c(c1)C(=O)N(C)C[C@@H](OC)[C@@H](C)CN(C(=O)c1ccc3c(c1)OCO3)[C@@H](C)CO2
→ 1 | -3 | 4.4
> O=C(Nc1cccc(F)c1)N1CC(=O)N2[C@H](CO)[C@H](c3ccc(Br)cc3)[C@@H]2C1
→ 3 | 2 | 1.3
> O=C1CN(Cc2ccc(F)cc2)C[C@@H]2[C@H](c3ccc(Br)cc3)[C@H](CO)N12
→ 17 | 3 | 15
> CCCNC(=O)N1C[C@@H](C)[C@H](OC)CN(C)C(=O)c2ccc(NC(=O)CC)cc2OC[C@H]1C
→ 10 | 7 | 3.0
> O=C(C[C@H]1CC[C@@H]2[C@H](COC[C@H](O)CN2C(=O)c2ccccc2F)O1)NCc1ccc(F)cc1
→ 1 | -6 | 7.5
> CCCNC(=O)N1CC(=O)N2[C@H](CO)[C@@H](c3ccc(C#Cc4cccc(F)c4)cc3)[C@@H]2C1
→ -10 | -1 | -8.8
> N#C[C@@H]1[C@H](c2ccc(C#CC3CCCCC3)cc2)[C@H](CO)N1S(=O)(=O)c1ccccc1
→ 0 | 2 | -1.5
> COc1ccccc1NC(=O)N[C@@H]1CC[C@H](CCNS(=O)(=O)c2ccc(Cl)cc2)O[C@@H]1CO
→ -9 | -6 | -2.9
> O=C(c1ccncc1)N1C[C@@H]2[C@H](c3ccccc31)[C@@H](CO)N2C(=O)c1ccccc1F
→ 0 | 0 | -0.6
> CNC[C@H]1Oc2ccc(N)cc2CC(=O)N([C@@H](C)CO)C[C@H]1C
→ 0 | 0 | -0.5

Looked up above:
Cc1noc(C)c1NC(=O)Nc1ccc2c(c1)C(=O)N(C)[C@H]1CC[C@H](CC(=O)NCc3ccc(Cl)cc3)O[C@@H]1CO2 @ DUX4 inh control: -3.9
CCS(=O)(=O)Nc1ccc2c(c1)C(=O)N(C)C[C@@H](OC)[C@@H](C)CN(C(=O)c1ccc3c(c1)OCO3)[C@@H](C)CO2 @ DUX4 inh: 1
COc1ccccc1NC(=O)N[C@@H]1CC[C@H](CCNS(=O)(=O)c2ccc(Cl)cc2)O[C@@H]1CO @ DUX4 inh difference: -6
O=C(C[C@H]1CC[C@@H]2[C@H](COC[C@H](O)CN2C(=O)c2ccccc2F)O1)NCc1ccc(F)cc1 @ DUX4 inh: 1
CCCNC(=O)N1CC(=O)N2[C@H](CO)[C@@H](c3ccc(C#Cc4cccc(F)c4)cc3)[C@@H]2C1 @ DUX4 inh control: -8.8
Cc1ccc(S(=O)(=O)N[C@H]2C=C[C@H](CC(=O)NC3CCCCC3)O[C@@H]2CO)cc1 @ DUX4 inh difference: 7

Going on with the list:
Values run as follows: DUX4 inh | DUX4 inh difference | DUX4 inh control
> CCCC(=O)N1CCC2(CC1)CN(C(=O)Cc1ccccn1)[C@H](CO)c1[nH]c3cc(OC)ccc3c12
→ 8 | 3 | 4.8
> COC(=O)C[C@H]1C[C@H]2c3cc(N(C)C)ccc3O[C@H]2[C@H](CO)O1
→ 4 | 3 | 1.7
> CC(C)CC#Cc1ccc([C@@H]2[C@H](CO)N3C(=O)CN(C(=O)c4cccc(F)c4)C[C@@H]23)cc1
→ -10 | 2 | -12
> CNC[C@@H]1Oc2c(NS(=O)(=O)c3cn(C)cn3)cccc2C(=O)N([C@@H](C)CO)C[C@@H]1C
→ 2 | 1 | 1.2
> COc1ccc(-c2ccccc2[C@@H]2[C@@H](C#N)N(C(=O)NC(C)C)[C@H]2CO)cc1
→ -7 | 0 | -7.1
> CO[C@H]1CN(C)C(=O)c2ccc(NC(=O)c3cnccn3)cc2OC[C@@H](C)N(CC2CC2)C[C@@H]1C
→ 2 | -3 | 5.0
> COc1ccc(NC(=O)N(C)C[C@@H]2OCc3cn(nn3)CCCC(=O)N([C@@H](C)CO)C[C@@H]2C)cc1
→ 1 | 0 | 0.6
> COc1ccc2c3c([nH]c2c1)[C@@H](CO)N(C(=O)Nc1ccc(F)cc1)CC31CCN(Cc2nccs2)CC1
→ 0 | 15 | -15
> C[C@@H]1CN([C@@H](C)CO)C(=O)CCCn2nncc2CO[C@@H]1CN(C)C(=O)Nc1ccccc1
→ -2 | 1 | -3.9
> CCCNC(=O)C[C@H]1CC[C@@H]2[C@H](COC[C@H](O)CN2C(=O)CC)O1
→ 3 | 2 | 0.8
> COc1cccc(S(=O)(=O)N2C[C@H](O)COC[C@@H]3O[C@@H](CC(=O)N4CCOCC4)CC[C@H]32)c1
→ 4 | -6 | 11
> COCC(=O)Nc1ccc2c(c1)OC[C@H](C)N(C)C[C@H](C)[C@H](OC)CN(C)C2=O
→ 4 | 2 | 1.3
> O=C(Nc1ccc(-c2ccccc2)cc1)[C@H]1[C@H](CO)[C@H]2Cn3c(cccc3=O)[C@H]2N1CC1CCOCC1
→ 5 | 34 | -29
> C[C@@H]1CN([C@@H](C)CO)C(=O)CCCn2cc(nn2)CO[C@@H]1CN(C)C(=O)Nc1ccccc1
→ 0 | -3 | 3.6

An excerpt; count on the stated rates, not on these rows.
